Screening results: PubChem BioAssay, National Center for Advancing Translational Sciences (NCATS)
hNpr1 antagonist = antagonists of human natriuretic peptide receptor Npr1; HEK293 hNpr1 GloSensor cGMP, ANP-stimulated luminescence; Potency, µM (series often up to 46.3 µM), inactives show top-dose activity change, negative = inhibition, actives largely listed as inhibitors; 76,000 compounds, 1.6% hits; active = well fitted inhibition curve with a large enough effect; inconclusive = small, poorly fitted or top-dose-only effect; inactive = no such curve, though single readings can be large or run the other way;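 also: nearly all actives have a fitted effect of over 60% in size; nearly all hits also lower the signal before the agonist is added; a reference antagonist and vehicle were the controls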
Target sequence (P16066 whole entry, looked up): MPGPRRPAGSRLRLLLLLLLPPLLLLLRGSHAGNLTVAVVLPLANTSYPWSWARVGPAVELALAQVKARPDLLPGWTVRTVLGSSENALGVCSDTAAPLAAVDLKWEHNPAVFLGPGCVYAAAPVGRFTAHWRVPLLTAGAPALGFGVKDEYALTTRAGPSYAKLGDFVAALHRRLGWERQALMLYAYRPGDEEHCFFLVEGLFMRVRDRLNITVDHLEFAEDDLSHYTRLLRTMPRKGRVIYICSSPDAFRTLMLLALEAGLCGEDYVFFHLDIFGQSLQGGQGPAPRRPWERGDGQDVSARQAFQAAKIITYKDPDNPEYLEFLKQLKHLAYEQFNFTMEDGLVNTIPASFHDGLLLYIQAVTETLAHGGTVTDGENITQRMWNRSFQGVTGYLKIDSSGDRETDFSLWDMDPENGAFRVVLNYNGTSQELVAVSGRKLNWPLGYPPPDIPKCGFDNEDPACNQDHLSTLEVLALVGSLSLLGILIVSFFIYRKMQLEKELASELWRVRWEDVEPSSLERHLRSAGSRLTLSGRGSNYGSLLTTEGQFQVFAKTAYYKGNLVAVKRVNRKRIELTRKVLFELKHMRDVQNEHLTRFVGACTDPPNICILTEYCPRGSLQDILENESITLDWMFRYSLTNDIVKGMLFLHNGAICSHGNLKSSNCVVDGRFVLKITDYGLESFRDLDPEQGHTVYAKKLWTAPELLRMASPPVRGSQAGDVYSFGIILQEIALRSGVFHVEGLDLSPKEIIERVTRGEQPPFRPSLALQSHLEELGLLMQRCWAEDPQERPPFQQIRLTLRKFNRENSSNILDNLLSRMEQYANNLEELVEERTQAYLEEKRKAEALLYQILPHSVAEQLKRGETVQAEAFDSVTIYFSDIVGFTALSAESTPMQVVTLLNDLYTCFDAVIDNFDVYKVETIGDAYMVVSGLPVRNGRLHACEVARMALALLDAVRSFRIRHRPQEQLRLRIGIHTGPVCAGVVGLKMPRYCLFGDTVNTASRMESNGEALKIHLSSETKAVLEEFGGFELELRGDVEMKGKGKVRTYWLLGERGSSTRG
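HEK293 cells stably expressing human Npr1 and cGMP GloSensor pGS-40F, loaded 2 h with 2% GloSensor reagent, given compound 30 min at room temperature. Luminescence read before and 20 min after 0.1 nM hNppA.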
* marks the source's active call; other numbers are inactive results; ? = inconclusive; [ ] = remark or other dose. % is scaled to controls: 0 for no effect and ±100 for the full control effect; potency is read from the fitted curve at half-maximal effect.

nr	Structure	hNpr1 antagonist
1	CN1Cc2nc(-c3cnn(Cc4ccccc4)c3)ccc2OCC1=O	-5%[70.6 µM]
2	NC(=O)CCNC(=O)C1=C[C@@H](NC(=O)c2cccc(F)c2)[C@@H](O)[C@H](O)C1	0%[70.6 µM]
3	O=C1NCCOCCCN(C(=O)Nc2ccccc2)[C@H]2CCCC[C@@H]12	-8%
4	FC1(F)C[C@@H](c2nnc(C3CC3)o2)N(C2CCOCC2)C1	12%
5	O=C1C(N2CCN(Cc3ccc[nH]3)CC2)CCN1CCc1ccccc1 (stereo unspecified)	6%
6	Cc1nc(-c2cn(C3CCCN(C(=O)c4ccc(OC(F)(F)F)cc4)C3)nn2)no1 (stereo unspecified)	-4%
7	Cc1cnc(C(=O)N2CCCC(Cc3noc(-c4cnccn4)n3)C2)cn1 (stereo unspecified)	15%
8	COCC(=O)NC1CCC12CCN(C(=O)c1ccc3[nH]ccc3c1)CC2 (stereo unspecified)	4%
9	O=C(O)c1cccc(-c2n[nH]c3c2CC(=O)N(c2ccccc2)C3)c1	-3%[70.6 µM]
10	COC(=O)[C@H]1CCCN1C(=O)[C@@H]1C[C@H](NC(=O)NC(C)C)CN1C(=O)c1cccn1C	-2%[70.6 µM]
11	Oc1ccccc1CN1CCNc2cnc(-c3ccccc3)cc2C1	?
12	Cc1ccc(CN2CCC(C(=O)N3CCCCCCNC(=O)CC3)CC2)o1	0%
13	CNC(=O)[C@@H](c1ccccc1)N1CCC[C@H]1C(=O)NCc1ccc(C(F)(F)F)cc1	0%[70.6 µM]
14	CN1CCCN(C[C@@H]2CN(C(=O)c3ccnn3C)C[C@@H]2CO)CC1	7%
15	COCCO[C@H]1C(=O)N(C2CCN(Cc3ccccc3C#N)CC2)[C@H]1c1ccncc1	-2%
16	COc1cc(CN2CCc3nn(C)c(=O)n3CC2)ccc1OC(C)C	-11%
17	CNC(=O)C(C)(C)N1CCC[C@H]1C(=O)N1CCCC1	-4%[70.6 µM]
18	CC(C)c1noc([C@@H]2C[C@H](NC(=O)Nc3ccc(F)cc3)CN2C)n1	-9%[70.6 µM]
19	COc1ccc(-c2noc(-c3cccn3CC(=O)NCc3ccc(OC)c(OC)c3)n2)cc1F	3%
20	CC1(C(=O)NC2CCN(Cc3ccccc3)CC2)CCCCC(=O)N1 (stereo unspecified)	0%
21	COc1ccc(C2Cn3cnc(C(=O)N4CCC(C(=O)NCC(C)C)CC4)c3CO2)cc1 (stereo unspecified)	-1%
22	CC(C)COc1cc(=O)n2c(c1C(=O)NCCCn1cccn1)CCCCC2	3%
23	CO[C@H]1COCCN(c2nc3ccccc3o2)C1	3%[70.6 µM]
24	O=C1NC(=NC2CCCC2)C2(CCCN([S+](=O)([O-])c3cccc(C(F)(F)F)c3)C2)N1c1cc(F)cc(F)c1 (stereo unspecified)	-9%
25	O=C(Cn1ccn2nc3c(c2c1=O)CCCCC3)Nc1ccccc1C(F)(F)F	19%
26	O=C(NC1CCN(c2cc(C(F)(F)F)ncn2)CC1)c1ccccc1F	?
27	COCCCNC(=O)[C@H]1CN(Cc2ccccc2)C[C@H]1C(=O)O	1%
28	CC(C(=O)NCCc1ccccn1)C1CCOCC1 (stereo unspecified)	2%
29	CCn1ccc2cc(C(=O)N3CCC(=O)N(CC4CC4)C(C(C)C)C3)ccc21 (stereo unspecified)	-1%
30	CCCN(CC1CCOC1)S(=O)(=O)c1ccc(OC)c(OC)c1 (stereo unspecified)	2%

Among those listed so far, these have a COOH group:
nr	Structure	hNpr1 antagonist
9	O=C(O)c1cccc(-c2n[nH]c3c2CC(=O)N(c2ccccc2)C3)c1	-3%[70.6 µM]
27	COCCCNC(=O)[C@H]1CN(Cc2ccccc2)C[C@H]1C(=O)O	1%

Next part.
nr	Structure	hNpr1 antagonist
31	O[C@H]1[C@H](NCC2CC2)[C@H]2CO[C@H](O2)[C@@H]1N1CCCCC1	9%[70.6 µM]
32	Cc1ccc(C(=O)N2C[C@@H](F)C[C@H]2C(=O)N2CCCCC2)c(C)c1	-6%
33	COc1ccc(N2CCC(NS(=O)(=O)C3CC3)C2=O)cc1 (stereo unspecified)	2%
34	COc1ccnc(CN2C(=O)NC(CCc3ccccc3)(C3CCNCC3)C2=O)c1 (stereo unspecified)	5%
35	Cc1ccccc1C(=O)N1CCC2(CC1)CC(=O)N(c1ccccc1)c1ccccc1O2	0%
36	Cc1nc([C@H]2CCN(Cc3sccc3C)C[C@H]2NC(=O)C2CCOCC2)n[nH]1	5%
37	Cc1ccc(C2Cn3nnc(-c4noc(COc5cccc(C)c5)n4)c3CO2)cc1 (stereo unspecified)	-21%
38	Cc1cccc(CN2CCCC(c3nc(-c4cccnc4)no3)CCNC(=O)CC2)c1 (stereo unspecified)	-3%
39	COc1ccc(-c2cc3c(cn2)CN(Cc2cccnc2)CCN3)cc1F	?
40	COc1cc(OC)cc(C(=O)N2CCCN(c3cc(-c4ccc(C)c(C)c4)[nH]n3)CC2)c1	-15%
41	C[C@@H](NC(=O)Nc1ccc(Cl)cc1)c1onc(-c2ccccc2)c1C(=O)O	-1%[70.6 µM]
42	c1ccc2c(c1)CC(c1n[nH]c(C3CCOCC3)n1)CO2 (stereo unspecified)	10%
43	COc1cc2c(cc1OC)C(C[C@H]1CN(S(=O)(=O)c3cccs3)CC[C@H]1CC(=O)O)=NCC2	1%
44	O=C(c1ccc(Cl)cc1)N1CCN2C(=O)N(C3CCOCC3)C[C@H]2C1	4%[70.6 µM]
45	Cc1cccc(N2CCN(C(=O)c3noc(-c4ccc5c(c4)OCO5)n3)CC2)c1C	-16%
46	COC(=O)C1=C(C)N=C2SC=C(CC(=O)NCc3ccccc3)N2C1c1cccc(F)c1 (stereo unspecified)	-25%
47	COCC(=O)N1CCN(C(=O)C2CCCCC2)[C@@H](C(=O)OC)C1	5%[70.6 µM]
48	Cc1ccccc1Oc1ncccc1CNC(=O)CCc1c(C)nn(C)c1C	-3%
49	COc1ccccc1NC(=O)N1CCc2cc(OC)c(OC)cc2C1CNC(=O)NC(C)(C)C (stereo unspecified)	4%
50	Cn1nc2n(c1=O)CCC(NC(=O)c1cc(C3CC3)[nH]n1)CC2 (stereo unspecified)	3%
51	O=C(NCC1CC1)C1CCc2ncc(-c3ccc(F)cc3)n2C1 (stereo unspecified)	-18%
52	Cc1cnc(CC2CCCN(C(=O)N(C)C)C2)n1C(C)C (stereo unspecified)	1%
53	COCCN1C[C@H]2CN(Cc3ccc(C(=O)O)cc3)CCN2C1=O	-7%[70.6 µM]
54	C[C@@H]1CN(C(=O)Cn2ncc(N3CCc4ccccc4C3)cc2=O)C[C@H](C)O1	1%
55	Cc1ccccc1NC(=O)N1CCC(CCNC(=O)c2ccc3nc[nH]c3c2)CC1	-1%
56	Cc1ccc(C(=O)N2CC(c3nnc(-c4ccncc4)o3)C3(CCOCC3)C2)cc1F (stereo unspecified)	-7%
57	Cc1noc(C)c1[S+](=O)([O-])N1CCCC2(CC(Cc3ccccc3)=NO2)C1 (stereo unspecified)	25%
58	CCOCC(=O)N1CCCC(c2nc(-c3ccccc3)no2)CCNC(=O)CC1 (stereo unspecified)	7%
59	CC1CCC2(CC1)NC(=O)N(CC(=O)Nc1ccc(Cl)cc1C(F)(F)F)C2=O (stereo unspecified)	0%
60	COc1ccc(F)cc1Nc1cnc2ccc(N(C)Cc3cccnc3)nn12	7.9µM*
61	CCNC(=O)N1CCCN(C(=O)C2CC2)C(c2ccccc2)CC(=O)NCC1 (stereo unspecified)	0%
62	CNC(=O)[C@@H]1C[C@@H](n2cc(CNC(=O)Nc3cccc(Cl)c3C)nn2)CN1	10%
63	CN(C)c1cccc(-c2nccc3c(=O)cc(-c4cn[nH]c4)oc23)c1	2%[70.6 µM]
64	Cc1nc(C(=O)N2C[C@@H](COCC3CC3)[C@H](c3ccccn3)C2)co1	0%
65	Cc1ccc(NC(=O)[C@H]2CCC[C@H]2NC(=O)c2cnc(C)cn2)cc1	-4%
66	COc1cccc(CCC(=O)N2[C@@H]3CC[C@H]2CC(NC(=O)c2ccc(F)cc2)C3)c1 (stereo partly specified)	-1%
67	Cc1cnc(C2CCN(C(=O)NCC(C)C)C2)n1C(C)C (stereo unspecified)	6%
68	CCN(CC)C(=O)N1CC(Oc2ccc(-c3noc(COC)n3)cc2)C1	10µM*
69	COCCN1C(=O)CO[C@H]2CN(CCCc3ccccc3)C[C@H]21	14µM*
70	O=C(Cc1ccccn1)N1CCN(c2nc3ncccc3o2)CC1	3%[70.6 µM]
71	O=C(NCC1CCCO1)c1ccc(CN2C(=O)NC3(CCOCC3)C2=O)cc1 (stereo unspecified)	10%
72	N#Cc1ccc(C(=O)N[C@H]2CCOC[C@H]2C2CCOCC2)cn1	4%
73	CC(C)CNC1(Cc2cc(CN(C)C)on2)COC1	5%[70.6 µM]
74	COc1cccc(-c2[nH]ncc2CN)c1	-1%
75	COc1ccccc1CC(=O)N1CCC[C@H]1c1nc(-c2ccc(C)cc2)no1	-5%
76	COCCN1CC2(CCC1=O)CCN(C(=O)C1CC=CCC1)CC2 (stereo unspecified)	2%
77	CCNC(=O)CC1=C2CCCCC2N(C)C1=O (stereo unspecified)	3%
78	O=C(c1ccn(C(F)F)n1)N1CCc2nc(-c3ccc(Cl)cc3)[nH]c2C1	0%
79	COC(=O)[C@@H]1Cc2ncn(C)c2CN1C(=O)c1ccc(-c2ccccc2)cc1	10%[70.6 µM]
80	COC(=O)c1nc(NC(=O)Cn2nc3c(cc2=O)CCCC3)sc1-c1ccccc1	6%
81	CC(C)CCN1C[C@H]2[C@H](C1)[S+](=O)([O-])C(C)(C)C(=O)N2Cc1ccc(O)cc1	0%[70.6 µM]
82	COC(=O)CNC(=O)N1CCCC1c1nc(CCOCC2CC2)no1 (stereo unspecified)	2%
83	CCc1noc([C@@H]2CC(F)(F)CN2S(=O)(=O)c2cccnc2)n1	-2%
84	CC1(COc2ccccc2)COc2ccc(C(=O)N3CCOCC3)cc2N1 (stereo unspecified)	-2%[70.6 µM]
85	CC(O)c1cc2n(n1)CCN(S(=O)(=O)c1ccc3c(c1)NC(=O)CO3)C2 (stereo unspecified)	6%
86	O=C(O)C[C@@H]1CCN(C(=O)COc2ccccc2)C[C@@H]1CCN1CCC(n2c(=O)[nH]c3ccccc32)CC1	4%
87	O=C(c1ccc2ccccc2n1)N1C[C@@H](CO)[C@H](c2ccccn2)C1	3%
88	CC(C)(C)NS(=O)(=O)C1CCS(=O)(=O)C1 (stereo unspecified)	8%
89	CN(C)c1ccc(CN2CCC3(CC2)CC(=O)c2ccc(Cl)cc2O3)cc1	14%
90	FC(F)(F)Oc1cccc(CN2CCC[C@H]2c2nc(-c3ccc(N4CCOCC4)nc3)no2)c1	-13%

The list continues.
nr	Structure	hNpr1 antagonist
91	CC1=NOC(C(=O)N2CCCn3nc(C(=O)NCCN(C)C)cc3C2)C1 (stereo unspecified)	1%
92	COc1ccc(C(=O)N2CCCCCC2c2nnc(-c3ccccc3)o2)cn1 (stereo unspecified)	-8%
93	O=C1C(N2CCN(S(=O)(=O)c3cccc(F)c3)CC2)CCN1Cc1cccnc1 (stereo unspecified)	-17%
94	COc1ccc(CNC(=O)Cn2cccc2-c2nc(-c3ccc(F)cc3)no2)cc1	1%
95	C=CCN1CCN(C(=O)c2ccc3c(c2)C(O)CCCCCN3C)CC1 (stereo unspecified)	-11%
96	CNC(=O)[C@@H]1CN(C(=O)Cc2ccc(OC)c(Cl)c2)C[C@H]1COC	-18%
97	COCC(=O)N1CCn2c(nn(-c3ccc([N+](=O)[O-])cc3)c2=O)C1	-2%[70.6 µM]
98	COc1ccc(CN[C@H]2[C@H](O)[C@H](O)C[C@@H]2c2cccnc2)cc1	-6%[70.6 µM]
99	O=C(N[C@H]1CO[C@H]2[C@@H]1OC[C@@H]2n1nnnc1-c1ccc2c(c1)OCO2)c1ccccc1	?
100	Cc1cnc(CCNC(=O)NC(C)(C)C)n1CC1CC1	1%
101	Cc1nccn1CCCC(=O)N[C@@H]1CCOC[C@H]1OCC(=O)O	0%
102	CN1c2cc(C(=O)Nc3ccc(C(N)=O)cc3)ccc2C(=O)N2CCCCCC21 (stereo unspecified)	0%
103	O=C(NCC1CC1)c1cnc2n1CCN(CCc1ccccc1)CC2	-6%[70.6 µM]
104	Clc1cccc(-c2cnc([C@@H]3COCCN3C3CCCCC3)[nH]2)c1	-2%[70.6 µM]
105	CCNc1cc(N2CCC(CCC(=O)N(CC)CC)CC2)ncn1	0%

Sorted by the number under hNpr1 antagonist (largest number first): six from the list above
nr	Structure	hNpr1 antagonist
100	Cc1cnc(CCNC(=O)NC(C)(C)C)n1CC1CC1	1%
102	CN1c2cc(C(=O)Nc3ccc(C(N)=O)cc3)ccc2C(=O)N2CCCCCC21 (stereo unspecified)	0%
92	COc1ccc(C(=O)N2CCCCCC2c2nnc(-c3ccccc3)o2)cn1 (stereo unspecified)	-8%
95	C=CCN1CCN(C(=O)c2ccc3c(c2)C(O)CCCCCN3C)CC1 (stereo unspecified)	-11%
93	O=C1C(N2CCN(S(=O)(=O)c3cccc(F)c3)CC2)CCN1Cc1cccnc1 (stereo unspecified)	-17%
96	CNC(=O)[C@@H]1CN(C(=O)Cc2ccc(OC)c(Cl)c2)C[C@H]1COC	-18%

Among those listed so far, 2 contain a cyano group.
nr	Structure	hNpr1 antagonist
15	COCCO[C@H]1C(=O)N(C2CCN(Cc3ccccc3C#N)CC2)[C@H]1c1ccncc1	-2%
72	N#Cc1ccc(C(=O)N[C@H]2CCOC[C@H]2C2CCOCC2)cn1	4%

A portion of the library (hit frequency here may not be typical).
